# Compound activity deposited in PubChem BioAssay by National Center for Advancing Translational Sciences (NCATS).
# Cruzain noTriton = blocks cruzain activity in detergent-free assay; P25779; Potency, µM, for inactives: max response, negative = inhibition, actives largely listed as inhibitors; purified cruzain, Z-FR-AMC fluorescence, no detergent; actives 2.3% (n = 200,000); AID 1476; active = well fitted curve in the direction sought with a large enough effect; inconclusive = small, poorly fitted or top-dose-only effect, or another doubt; inactive = no such curve, though single readings can be large; an effect the other way counts as inactive or inconclusive;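 note: plate controls were enzyme without inhibitor for no effect and buffer without enzyme for full effect; nearly all actives have a fitted effect of over 40% in size; top concentration of the series not given in the record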
# Target sequence (P25779 123-467 limits assumed): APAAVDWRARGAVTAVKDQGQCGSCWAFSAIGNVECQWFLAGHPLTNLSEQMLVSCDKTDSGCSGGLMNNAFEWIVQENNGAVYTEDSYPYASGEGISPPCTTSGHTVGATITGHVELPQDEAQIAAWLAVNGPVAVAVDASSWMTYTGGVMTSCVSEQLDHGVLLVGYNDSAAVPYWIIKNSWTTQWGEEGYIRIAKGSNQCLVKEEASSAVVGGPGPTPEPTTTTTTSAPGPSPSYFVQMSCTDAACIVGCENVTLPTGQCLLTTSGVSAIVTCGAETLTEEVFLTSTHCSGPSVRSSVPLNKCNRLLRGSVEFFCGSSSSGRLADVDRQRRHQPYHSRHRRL
#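 Detergent-free condition (0.00005% Triton X-100) in acetate buffer pH 5.5 with DTT. 1.5 nM enzyme and compound were pre-mixed 15 min, then 2 uM Z-FR-AMC substrate added; reaction progress from fluorescence change between first and third reads (60 s).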
# NS1 function inh = blocks influenza NS1 protein function; actives 0.4% (n = 270,000); Potency, µM (doses to about 46.1 µM), for the others: top-dose activity, positive = more growth; S. cerevisiae slowed by influenza A NS1, growth recovery by OD600; note: actives are rising curves; nearly all actives have a fitted effect of over 50% in size
#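 A cell-based growth assay was used: compounds that relieve NS1-induced slow growth of budding yeast raise OD600. Assay medium was yeast nitrogen base with ammonium sulphate and -URA supplement, pH 6.0, with 2% galactose.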
# MARV entry inh = inhibitors of Marburg virus binding or cell entry. Potency, µM (highest dose often 37.8 µM), for the others: at the highest dose activity change, negative = inhibition, usual class: inhibitors. Marburg virus pseudotyped entry inhibition, cell reporter; control for the full effect not named in the record; about a third of the inactives were read at about 46 µM. actives 1.8% (n = 300,000). AID 540276; active = well fitted inhibition curve with a large enough effect; inconclusive = small, poorly fitted or top-dose-only effect, or effect the other way; inactive = flat fitted curve, though single readings scatter; tested in HEK293 cells; about a fifth of its hits are not listed in these tables; note: % is set by controls: 0 for no effect and ±100 for the full control effect; luciferase read-out
# StopGo reporter = FMDV 2A StopGo reporter, luciferase signal. human cells with a luciferase reporter of 2A StopGo recoding; control for the full effect not named in the record. Potency, µM (titrated, usually from 57.9 µM), for inactives: at the top dose signal change, negative = less light. actives 1.2% (n = 410,000); active = well fitted falling curve with a large enough effect; inconclusive = small, poorly fitted or top-dose-only effect; inactive = no such curve, though single readings can be large or run the other way; tested in HEK293T cells; note: % is set by controls: 0 for no effect and ±100 for the full control effect; nearly all actives have a fitted effect of over 45% in size; luciferase light after 4 h
# Lassa entry inh = inhibitors of Lassa virus binding or cell entry; Lassa virus pseudotype entry inhibition, cell reporter; control for the full effect not named in the record; Potency, µM (doses to about 37.9 µM), inactives show at the highest dose activity change, negative = inhibition, hits mostly inhibitors; actives 1.2% (n = 300,000); active means well fitted inhibition curve with a large enough effect; inconclusive means small, poorly fitted or top-dose-only effect, or effect the other way; inactive means flat fitted curve, though single readings scatter; tested in HEK293 cells; note: % is set by controls: 0 for no effect and ±100 for the full control effect; nearly all actives have a fitted effect of over 50% in size; luciferase read-out
# SARS PLpro yeast = inhibitors of SARS-CoV papain-like protease in yeast | S. cerevisiae expressing SARS-CoV PLpro, growth rescue; control for the full effect not named in the record | Potency, µM (top dose mostly 32.9 µM), for the others: top-dose activity, positive = growth rescue | actives 0.19% (n = 330,000) | AID 485353; note: 0% is about no effect; nearly all actives have a fitted effect of over 55% in size; growth read by luminescence after 48 h
# Cruzain inh Det = blocks cruzain activity in presence of Triton detergent; actives 0.43% (n = 200,000); AID 1478; P25779; purified cruzain, Z-FR-AMC fluorescence, 0.01% Triton; Potency, µM, for the others: max response, negative = inhibition, usual class: inhibitors; active = well fitted curve in the direction sought with a large enough effect; inconclusive = small, poorly fitted or top-dose-only effect, or another doubt; inactive = no such curve, though single readings can be large; an effect the other way counts as inactive or inconclusive;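 note: plate controls were neutral wells for no effect and buffer without enzyme for full effect; nearly all actives have a fitted effect of over 40% in size; top concentration of the series not given in the record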
#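 Compounds were screened in titration against cruzain (1.5 nM) with 0.01% Triton X-100 to counter colloidal aggregation. Activity was the AMC fluorescence increase over 60 s after adding 2 uM Z-FR-AMC at pH 5.5.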
# RE007 growth inh = less growth of the S. pombe RE007 Vpr strain; Potency, µM (top dose mostly 92.2 µM), inactives show at the top dose activity change, negative = less growth; AID 651644; S. pombe RE007 Vpr strain, BacTiter-Glo ATP luminescence, 24 h; control for the full effect not named in the record; actives 0.21% (n = 360,000); active = well fitted falling curve with a large enough effect; inconclusive = small, poorly fitted or top-dose-only effect; inactive = no such curve, though single readings can be large or run the other way;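 note: % is set by controls: 0 for no effect and ±100 for the full control effect; nearly all actives have a fitted effect of over 50% in size; the assay follows cell death caused by Vpr and the record does not say whether a fall means rescue or toxicity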
#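 Fission yeast strain RE007, carrying one chromosomally integrated HIV-1 vpr copy, was seeded at OD 0.01 in PMG+AL medium with 23 nL pinned compound. After 24 h at 30 °C and 99% humidity, viability was read by BacTiter-Glo luminescence.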
# * = called active by the depositor; ? = inconclusive; . = not tested or not shown; [ ] = remark or other dose. Unless noted, calls come from the whole dose curve; as a rule, active means well fitted rising curve with a large enough effect; inconclusive means small, poorly fitted or top-dose-only effect; inactive means no such curve, though single readings can be large or run the other way. Potency is the fitted concentration of half-maximal effect. The order is random; 4.7% or so of the library scored in one or more.
SMILES,Cruzain noTriton,NS1 function inh,MARV entry inh,StopGo reporter,Lassa entry inh,SARS PLpro yeast,Cruzain inh Det,RE007 growth inh
O=[N+]([O-])c1ccc(/C=N/n2cn[nH]c2=S)cc1,.,3.9%,21.8%,-11.4%,-18.2%,-0.6%,.,1.1%
CCS(=O)(=O)N1CCC(C(=O)NCc2ccc(F)cc2)CC1,-0.8%,4.1%,8.2%,.,19.7%,7.9%,2.4%,-1.7%
Fc1ccc(C(CCNCc2ccccn2)c2ccc(Cl)cc2)cc1 (centres undefined),.,-5.4%,?,49.0%[activator],?,-2.6%,.,3.0%
COc1cccc(-c2noc(CCC(=O)NC3CCCC3)n2)c1,.,-8.0%,.,-1.9%,.,-2.8%,.,-11.7%
Cc1ccc(SCC(=O)NCC2COc3ccccc3O2)cc1 (centres undefined),.,.,-17.1%,4.3%,8.7%,-6.8%,.,15.4%
CC(=O)N1c2ccc(S(=O)(=O)N3CCC(C(=O)Nc4cc(C)ccn4)CC3)cc2CC1C (centres undefined),.,-1.2%,.,?,.,1.1%,.,-12.1%
COC(=O)c1cc(NC(=O)c2c(-c3ccccc3)noc2C)ccc1N1CCOCC1,.,-3.2%,-8.6%,-8.9%,1.9%,2.1%,.,3.7%
O=C(N/N=C/C=C/c1ccco1)c1ccccc1Cl,.,.,?,17.9%,-24.3%[46.1 µM],0.7%,.,-14.5%
Cc1ccc(NC(=O)CSc2nc(-c3ccc(F)cc3)cc(C(F)(F)F)c2C#N)cc1,0.3%,.,?,-6.7%,3.2%[46.1 µM],.,-3.1%,.
CCN1C(=O)[C@H]2[C@@H](c3ccc(C)cc3)N3C(=O)N(c4ccc(C)cc4)C(=O)[C@@]3(C)[C@H]2C1=O,.,-8.6%,.,-3.5%,.,-12.5%,.,8.9%
CCn1c(SCC(=O)N/N=C/c2c[nH]c3ccccc23)nnc1-c1ccc(C(C)(C)C)cc1,15.8%,6.7%,?,?,4.47µM*,10.1%,-6.6%,25.9%
Cc1ccc(S(=O)(=O)N2CCCC2)cc1C(=O)NC1CCCCC1,.,-0.6%,-2.3%,-7.4%,14.9%,6.2%,.,0.7%
O=S(=O)(c1ccc(Cl)cc1)N1CC1c1ccccc1 (centres undefined),4.6%,?,-1.7%,85.7%[activator],5.8%,-1.2%,-2.4%,?
COc1ccc(N=C2NC(=O)/C(=C/c3ccc(O)c(OC)c3)S2)cc1,-1.2%,26.6%,?,1.8%,3.66µM*,10.4%,-11.4%,15.0%
OC(c1ccccc1)(c1ccccc1)C1CCN(C(=S)NCCc2ccccc2)CC1,.,19.9%,?,-23.4%,?,-1.1%,.,-3.1%
Cc1cc(C)c2nc(SCc3ccc([N+](=O)[O-])cc3)nc(C)c2c1,-1.6%,10.1%,-8.6%,4.9%,-7.1%,2.7%,2.9%,-5.6%
COc1ccc(CNC(=O)C2CCCN2)cc1OC (centres undefined),.,4.4%,-9.9%[46.1 µM],-16.7%,18.2%,-1.3%,.,23.7%
COc1cc(NC(=O)CSc2nnc(C)s2)cc(OC)c1,-0.7%,-7.4%,1.7%,5.2%,-0.6%,-0.5%,2.8%,-3.0%
Cc1c(C)n(Cc2ccccc2)c2ncnc(NCCCN(C)C)c12,.,5.9%,.,-11.9%,.,-0.3%,.,1.1%
C=CCn1cc(C(=O)NCCCOCC)c(=O)c2cc(S(=O)(=O)N(CC)CC)ccc21,?,2.9%,-3.9%,7.3%,6.51µM*,-9.6%,-3.4%,-4.3%
CCOc1ccc(N(C(=O)c2ccccc2Cl)C2=NC(C)(C)CS2)cc1,.,.,?,26.2%,-0.4%,-3.2%,.,0.0%
CCOC(=O)Cc1csc(NC(=O)c2ccco2)n1,-6.3%,8.4%,?,59.0%[activator],61.0%[14.3 µM],-5.9%,-1.0%,-12.3%
CC(=O)Oc1c(Sc2ccccc2[N+](=O)[O-])c(C)nn1C(C)(C)C,.,.,-5.0%[46.1 µM],-16.8%,.,-15.9%,.,-12.7%
O=C(COC(=O)COc1ccccc1)NCCc1ccccc1,.,.,14.9%[46.1 µM],-16.3%,?,-0.2%,.,17.7%
CC(C)(C)N/N=C/c1c(O)n(-c2ccc(Cl)cn2)c(=O)c2ccccc12,-6.6%,-45.3%,-12.2%,-12.1%,-0.1%,-6.1%,-7.3%,-31.3%
SMILES,Cruzain noTriton,NS1 function inh,MARV entry inh,StopGo reporter,Lassa entry inh,SARS PLpro yeast,Cruzain inh Det,RE007 growth inh
COc1ccc(OC)c(C2NC(=O)NC(C)=C2C(=O)OC2CCCCC2)c1 (centres undefined),.,6.0%,-10.3%,-21.2%,-10.4%,-7.9%,.,1.1%
CCC(=O)c1cn(Cc2ccccc2C#N)c2ccccc12,1.1%,-30.4%,10.9%,-29.5%,0.0%,-10.0%,-1.7%,10.3%
CN1CCN(C(=O)c2cc(Cl)cc(Cl)c2NC(=O)c2ccco2)CC1,.,-2.6%,-1.1%,-11.2%,-5.8%,-0.9%,.,0.0%
CCOc1ccc(Cl)cc1CNCCc1ccccc1F,.,-14.2%,?,-18.3%,4.0%[46.1 µM],-1.5%,.,-8.3%
Nc1[nH]nc2nc(NCc3ccccc3)c3c(c12)CCN(Cc1ccccc1)C3,1.3%,10.6%,?,-22.3%,12.6µM*,-1.9%,1.7%,23.0%
Cc1ccc(-c2nc3sccn3c2Nc2ccccc2C)cc1,25.1µM*,.,?,-14.5%,-13.3%[46.1 µM],.,-12.9%,.
COc1c(OC(C)=O)ccc(/C=N\NC(=O)c2ccc(Br)cc2)c1[N+](=O)[O-],.,-0.5%,-5.1%[46.1 µM],-13.9%,?,0.3%,.,6.5%
O=[N+]([O-])c1ccc2c(c1)CNc1ccccc1O2,.,1.8%,?,-1.7%,1.5%[46.1 µM],-7.3%,.,6.0%
CC(C)(O)CCC(C)(C)O,-0.5%,.,.,-17.8%,.,-10.8%,7.9%,3.3%
O=C(c1ccccc1)c1ccc2ccccc2n1,-0.6%,-7.2%,4.7%,42.2%[activator],?,5.9%,1.2%,-22.6%
Cn1c(=O)[nH]c(=O)c2c1nc(N1CCN(CCO)CC1)n2Cc1ccccc1,.,23.5%,2.8%[46.1 µM],-16.0%,-15.9%[46.1 µM],5.0%,.,-7.4%
Cc1cc(C)c(NC(=O)CN2c3ccccc3S(=O)(=O)c3ccccc32)c(C)c1,-28.4%,.,.,-8.1%,-0.3%[46.1 µM],.,-6.4%,.
CCc1ccc(CNC(=O)C2CCCN(S(=O)(=O)N3CC(C)CC(C)C3)C2)cc1 (centres undefined),.,16.6%,?,-1.4%,-11.5%[46.1 µM],13.8%,.,9.9%
COc1ccc(NC(=O)C2CCCN2C(=O)NC2CCCCC2)c(OC)c1 (centres undefined),.,5.0%,-0.5%[46.1 µM],8.9%,5.4%,-5.9%,.,5.3%
CNC(=O)CSc1nc2cc(S(=O)(=O)Nc3ccc(OC)cc3)ccc2o1,.,.,-9.6%,-14.5%,-4.7%,.,.,25.3%
CSC1=NCCN1C(=O)c1ccc(S(=O)(=O)N2CCOCC2)cc1,0.1%,-22.5%,.,-22.8%,.,8.2%,3.0%,20.1%
CN(C)CCN(Cc1ccco1)C(=O)c1oc2ccccc2c1NC(=O)COc1ccccc1,.,-26.3%,.,24.4%,.,-4.4%,.,-4.9%
O=C(CN1N=C(c2ccc(Cl)cc2)CCC1=O)NCCc1ccccc1,5.0%,.,.,-13.1%,16.6%[46.1 µM],.,0.1%,.
CCN(CC(=O)Nc1ccccc1OC)C(=O)CSCC(=O)Nc1ccc(OC)cc1,.,.,10.5%[46.1 µM],-15.9%,-17.0%,.,.,16.6%
Cc1ccc(N(CC(=O)NCCc2ccccc2C)S(=O)(=O)N(C)C)cc1,-1.6%,.,?,-6.3%,0.4%[46.1 µM],.,-1.7%,.
CCc1nnc(NC(=O)CSc2nnc(C)n2Cc2ccccc2)s1,-2.1%,2.1%,-2.9%,-3.1%,1.4%,-17.7%,-0.8%,-18.6%
CCOc1ccc(NS(=O)(=O)c2ccc(NS(=O)(=O)c3cccs3)cc2)cc1,.,8.7%,-12.5%[46.1 µM],20.8%,-6.7%,-0.5%,.,15.2%
COc1ccc2nc(N3CCN(C(=O)CS(=O)(=O)c4ccc(C)cc4)CC3)sc2c1,?,.,.,?,-29.7%[46.1 µM],.,-4.6%,.
Fc1ccc(/C=N/n2cnn(Cc3ccccc3Cl)c2=S)cc1,.,.,-4.5%[46.1 µM],19.4%,9.9%[46.1 µM],0.9%,.,-19.0%
Cc1ccc(Oc2ccc3c(c2)C(=O)N(c2cccc4cccnc24)C3=O)cc1,25.1µM*,0.8%,2.4%,-22.0%,-2.5%,-0.8%,2.5%,16.6%
SMILES,Cruzain noTriton,NS1 function inh,MARV entry inh,StopGo reporter,Lassa entry inh,SARS PLpro yeast,Cruzain inh Det,RE007 growth inh
O=C(N/N=C/c1cccc(O)c1)c1cc(-c2ccccc2)nc2ccccc12,.,-4.1%,.,-3.7%,.,1.1%,.,8.7%
Clc1ccccc1Cn1nnc(-c2cccs2)n1,0.5%,4.6%[9.22 µM],26.6%,39.5%[activator],5.7%,-12.9%,-3.9%,4.2%
COc1ccc(S(=O)(=O)N2CCOCC2)c(C)c1C,6.8%,-5.2%,9.9%,.,-14.6%,19.1%,-2.5%,13.1%
CC(C)OCC(O)CCc1n[nH]c(=S)n1-c1ccccc1 (centres undefined),-4.7%,10.6%,?,?,17.6%,14.9%,0.1%,-17.2%
CCc1cc2cc(C)cc(C)c2nc1SCC(=O)N1CCCC1,-2.9%,-2.5%,4.3%,-21.2%,18.0%,27.5%,-4.5%,-1.0%
CN=c1sc2ccccc2n1CC(O)c1ccccc1 (centres undefined),.,0.7%,-29.2%[46.1 µM],-5.7%,?,1.1%,.,-16.7%
COC(=O)c1ccc2c(=O)n(Cc3ccc(C(=O)NCCCN4CCOCC4)cc3)c(=S)[nH]c2c1,.,7.0%,-1.3%[46.1 µM],0.2%,-11.1%[46.1 µM],0.2%,.,3.3%
COc1cc(C(=O)O)cc(NC(=O)c2cccs2)c1OC,-9.1%,-1.1%,29.2%,-10.3%,-0.2%,18.2%,-7.9%,2.4%
COc1ccc(S(=O)(=O)NCC(c2ccc(N(C)C)cc2)N2CCc3ccccc32)cc1OC (centres undefined),-12.7%,.,.,-5.5%,?,.,-4.3%,.
